Screening results: PubChem BioAssay, National Center for Advancing Translational Sciences (NCATS)
SARS PLP yeast = SARS-CoV PLP inhibition in yeast; Potency, µM (series often up to 32.9 µM), for the others: top-dose activity, positive = growth rescue; S. cerevisiae expressing SARS-CoV PLpro, growth rescue; control for the full effect not named in the record; 0.19% of 330,000 active; further: 0% is about no effect; nearly all actives have a fitted effect of over 55% in size; growth read by luminescence after 48 h
RE007 growth inh = less growth of the S. pombe RE007 Vpr strain | Potency, µM (series often up to 92.2 µM), inactives show top-dose activity change, negative = less growth | S. pombe RE007 Vpr strain, BacTiter-Glo ATP luminescence, 24 h; control for the full effect not named in the record | AID 651644 | 0.21% of 360,000 active; active = well fitted falling curve with a large enough effect; inconclusive = small, poorly fitted or top-dose-only effect; inactive = no such curve, though single readings can be large or run the other way;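 further: on the % scale 0 is the no-effect control and ±100 the full control effect; nearly all actives have a fitted effect of over 50% in size; the assay follows cell death caused by Vpr and the record does not say whether a fall means rescue or toxicity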
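Fission yeast strain RE007, carrying one chromosomally integrated HIV-1 vpr copy, was seeded at OD 0.01 in PMG+AL medium with 23 nL pinned compound. After 24 h at 30 °C and 99% humidity, viability was read by BacTiter-Glo luminescence.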
Cruzain inh noDet = blocks cruzain activity in detergent-free assay; P25779; purified cruzain, Z-FR-AMC fluorescence, no detergent; Potency, µM, for the others: max response, negative = inhibition, hits mostly inhibitors; 2.3% of 200,000 active; active means well fitted curve in the direction sought with a large enough effect; inconclusive means small, poorly fitted or top-dose-only effect, or another doubt; inactive means no such curve, though single readings can be large; an effect the other way counts as inactive or inconclusive;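 further: plate controls were enzyme without inhibitor for no effect and buffer without enzyme for full effect; nearly all actives have a fitted effect of over 40% in size; top concentration of the series not given in the record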
Target sequence (P25779 123-467 limits assumed): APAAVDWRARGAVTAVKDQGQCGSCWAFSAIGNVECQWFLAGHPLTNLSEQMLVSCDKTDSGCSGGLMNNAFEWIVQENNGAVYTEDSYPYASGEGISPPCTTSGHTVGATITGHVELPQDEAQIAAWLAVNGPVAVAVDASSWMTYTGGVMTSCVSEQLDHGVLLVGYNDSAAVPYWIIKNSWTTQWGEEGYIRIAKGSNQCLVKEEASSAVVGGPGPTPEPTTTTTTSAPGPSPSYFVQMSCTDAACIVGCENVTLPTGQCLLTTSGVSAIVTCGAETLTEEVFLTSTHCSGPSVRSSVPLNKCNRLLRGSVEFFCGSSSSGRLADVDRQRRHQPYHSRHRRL
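Detergent-free condition (0.00005% Triton X-100) in acetate buffer pH 5.5 with DTT. 1.5 nM enzyme and compound were pre-mixed 15 min, then 2 uM Z-FR-AMC substrate added; reaction progress from fluorescence change between first and third reads (60 s).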
NS1 inh = blocks influenza NS1 protein function; Potency, µM (titrated, usually from 46.1 µM), for inactives: at the top dose activity, positive = more growth; S. cerevisiae slowed by influenza A NS1, growth recovery by OD600; 0.4% of 270,000 active; AID 2326; further: actives are rising curves; nearly all actives have a fitted effect of over 50% in size
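A cell-based growth assay was used: compounds that relieve NS1-induced slow growth of budding yeast raise OD600. Assay medium was yeast nitrogen base with ammonium sulphate and -URA supplement, pH 6.0, with 2% galactose.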
StopGo reporter = lowers the luciferase signal of an FMDV 2A StopGo reporter | human cells with a luciferase reporter of 2A StopGo recoding; control for the full effect not named in the record | Potency, µM (titrated, usually from 57.9 µM), inactives show at the highest dose signal change, negative = less light | 1.2% of 410,000 active | AID 1159524; active = well fitted falling curve with a large enough effect; inconclusive = small, poorly fitted or top-dose-only effect; inactive = no such curve, though single readings can be large or run the other way; tested in HEK293T cells; further: on the % scale 0 is the no-effect control and ±100 the full control effect; nearly all actives have a fitted effect of over 45% in size; luciferase light after 4 h
MARV entry inh = inhibitors of Marburg virus binding or cell entry; Potency, µM (top dose mostly 37.8 µM), without a hit: at the highest dose activity change, negative = inhibition, actives largely listed as inhibitors; Marburg virus pseudotyped entry inhibition, cell reporter; control for the full effect not named in the record; about a third of the inactives were read at about 46 µM; 1.8% of 300,000 active; AID 540276; active = well fitted inhibition curve with a large enough effect; inconclusive = small, poorly fitted or top-dose-only effect, or effect the other way; inactive = flat fitted curve, though single readings scatter; tested in HEK293 cells; about a fifth of its hits are not listed in these tables; further: on the % scale 0 is the no-effect control and ±100 the full control effect; luciferase read-out
Lassa entry inh = Lassa virus entry inhibition | Lassa virus pseudotype entry inhibition, cell reporter; control for the full effect not named in the record | 1.2% of 300,000 active | Potency, µM (series often up to 37.9 µM), inactives show at the top dose activity change, negative = inhibition, hits mostly inhibitors; active means well fitted inhibition curve with a large enough effect; inconclusive means small, poorly fitted or top-dose-only effect, or effect the other way; inactive means flat fitted curve, though single readings scatter; tested in HEK293 cells; further: on the % scale 0 is the no-effect control and ±100 the full control effect; nearly all actives have a fitted effect of over 50% in size; luciferase read-out
Cruzain inh Det = inhibitors of Trypanosoma cruzi cruzain with detergent; purified cruzain, Z-FR-AMC fluorescence, 0.01% Triton; Potency, µM, inactives show max response, negative = inhibition, usual class: inhibitors; 0.43% of 200,000 active; active means well fitted curve in the direction sought with a large enough effect; inconclusive means small, poorly fitted or top-dose-only effect, or another doubt; inactive means no such curve, though single readings can be large; an effect the other way counts as inactive or inconclusive;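 further: plate controls were neutral wells for no effect and buffer without enzyme for full effect; nearly all actives have a fitted effect of over 40% in size; top concentration of the series not given in the record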
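Read-out: AMC fluorescence (360 nm excitation, 450 nm emission), four reads over 2 min, first-to-third difference used. Conditions: cruzain 1.5 nM, Z-FR-AMC 2 uM, pH 5.5 acetate, 5 mM DTT, 0.01% Triton X-100.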
An asterisk follows results filed as active; ? = inconclusive; / = not tested or not shown; & = joins results of further samples; [ ] = remark or other dose. Unless noted, the call rests on the fitted dose curve; in most records, active means well fitted rising curve with a large enough effect; inconclusive means small, poorly fitted or top-dose-only effect; inactive means no such curve, though single readings can be large or run the other way. Potency means the concentration at half of the fitted maximal effect.

# | structure | Lassa entry inh | RE007 growth inh | Cruzain inh noDet | Cruzain inh Det | StopGo reporter | MARV entry inh | SARS PLP yeast | NS1 inh
1 | COc1cc(CCC(=O)NCc2ccc(Cl)cc2)cc(OC)c1OC | / | -2% | / | / | 0% | / | 1% | 4%
2 | Cc1ccc(-c2nnn(CC(=O)N(CC(=O)NCC3CCCO3)c3ccc(F)c(Cl)c3)n2)o1 (stereo unspecified) | -4% | -3% | ? | -0.4% | 8% | -3% | -6% | -1%
3 | Cc1ccc(-n2c(Cc3cccs3)nnc2SCC(=O)Nc2ccc(S(N)(=O)=O)cc2)cc1 | ? | 4% | 10% | -15% | 25% | -29%&-29% | 9% | 1%
4 | CN(C(=O)COC(=O)c1cc(S(=O)(=O)N2CCCCC2)ccc1N1CCOCC1)C1CCS(=O)(=O)C1 (stereo unspecified) | / | 8% | / | / | 2% | / | -7% | -2%
5 | O=C(Nc1nncs1)c1ccc(Br)c(S(=O)(=O)N2CCCC2)c1 | -1% | 9% | -4% | 4.8% | -9% | ? | 2% | 4%
6 | COc1ccccc1CCNC(=O)c1cccc(NC(=O)CC2SC(N3CCCCC3)=NC2=O)c1 (stereo unspecified) | -18% | -17% | / | / | -14% | -2% | / | /
7 | CC1CCCCC12NC(=O)N(CC(=O)NCc1ccccc1)C2=O (stereo unspecified) | -14% | -3% | / | / | -4% | ? | 1% | /
8 | CCOC(=O)c1sc2nc(C)nc(N3CCN(c4ncccn4)CC3)c2c1C | / | -16% | / | / | ? | / | -2% | -3%
9 | CCn1c(SCC(=O)Nc2nc3ccccc3s2)nnc1-c1ccc(OC)cc1 | -2% | -4% | ? | 4.5% | -14% | -2%[46.1 µM] | 3% | 2%
10 | COc1ccc2cc(C#N)c(NC(C)C)nc2c1 | 3% | 6% | -5% | -9.3% | -11% | -6%[46.1 µM] | -5% | -5%
11 | O=C(CCN1C(=O)c2ccncc2C1=O)Nc1ccc(F)cc1 | 0% | 1% | 2% | 1.4% | -22% | 29%[46.1 µM] | -1% | 0%
12 | CCCC12CN3CC(CCC)(CN(C1)C3C(O)C(O)C(O)CO)C2=O (stereo unspecified) | -1% | 1% | -2% | 3.8% | 0% | 8% | 0% | 3%
13 | CCOc1ccccc1CNCC1CCCO1 (stereo unspecified) | -18% | 3% | / | / | 2% | 3% | -9% | -6%
14 | Cc1ccc(C)c(Cn2nnc3c(=O)[nH]c(C4CCN(C(=O)c5ccco5)CC4)nc32)c1 | ? | -5% | / | / | -13% | ? | -1% | 25%
15 | Cc1ccccc1CNC(=O)c1ccccc1SCC(=O)NCc1ccco1 | -15% | -4% | / | / | 0% | -16%[46.1 µM] | 7% | /
16 | CCN(CC)C(=O)C1CCCN(C(=O)CCn2nnnc2CN2CCOCC2)C1 (stereo unspecified) | 7% | 4% | / | / | -19% | ? | 2% | 9%
17 | C=CCOC(=O)C1=C(C)Nc2nnnn2C1c1ccc(OC)cc1OC (stereo unspecified) | ? | -6% | -2% | -5.4% | 2% | -16% | -4% | -2%
18 | CCOC(=O)N1CCN(S(=O)(=O)c2ccc(OCC)c3ccccc23)CC1 | ? | -10% | ? | -7.4% | ? | ? | -18% | -70%
19 | Cc1ccc(C)c(Cn2c(=O)n(CCC(=O)NCc3ccc4c(c3)OCO4)c(=O)c3sccc32)c1 | -27%[46.1 µM] | / | -6% | -3.0% | 0% | -21%[46.1 µM] | / | /
20 | O=C(COC(=O)c1cccc(S(=O)(=O)N2CCN(c3ccccc3)CC2)c1)NCc1ccco1 | -12% | 3% | -5% | -1.4% | -12% | 2% | -8% | ?
21 | CCOC(=O)c1c(-c2ccccc2)nc2c(C)cccn12 | 1% | 14µM* | 6% | -3.3% | -11% | 20% | -30% | -140%
22 | O=C1N/C(=N/N=C/c2ccc(F)cc2)SC1c1ccccc1 (stereo unspecified) | / | -1% | / | / | 42%[activator] | / | 1% | -33%
23 | CCOc1ccccc1NC(=O)Cn1c(=O)c(OCC)nc2cnccc21 | / | -13% | / | / | -3% | / | 3% | 9%
24 | O=C1CCCCCN1Sc1ccccc1 | -10% | 13µM* | -8% | 2.6% | -25% | -13% | -15% | -47%
25 | COc1ccc(C(=O)c2cn(Cc3cccc(C)c3)c3cc4c(cc3c2=O)OCCO4)cc1OC | -24%[46.1 µM] | / | ? | -5.4% | -22% | ? | / | /
26 | COc1ccc(-c2nc(Cn3c(SCc4ccc(C)cc4)nc4ccncc43)c(C)o2)cc1OC | / | 19% | 5% | -7.6% | -8% | / | 13% | 10%
27 | N#C/C(=C\c1cccs1)C(=O)c1ccccc1 | 2% | 5% | / | / | -4% | -25% | -3% | 1%
28 | C/C(CC(=O)NCCN1CCOCC1)=N\NC(=O)c1ccncc1 | -7% | 12% | / | / | 6% | ? | 1% | 4%
29 | Nc1ccc(S(=O)(=O)N2CCC(Cc3ccccc3)CC2)cc1 | ? | -3% | / | / | -9% | 13%[46.1 µM] | 10% | -4%
30 | O=C(NC1CCN(C(=S)Nc2ccccc2)CC1)C1CCCCC1 | 3%[46.1 µM] | -16% | / | / | -16% | 3%[46.1 µM] | -1% | -16%

Some of these compounds in order of SMILES length, lowest first.
# | structure | Lassa entry inh | RE007 growth inh | Cruzain inh noDet | Cruzain inh Det | StopGo reporter | MARV entry inh | SARS PLP yeast | NS1 inh
24 | O=C1CCCCCN1Sc1ccccc1 | -10% | 13µM* | -8% | 2.6% | -25% | -13% | -15% | -47%
30 | O=C(NC1CCN(C(=S)Nc2ccccc2)CC1)C1CCCCC1 | 3%[46.1 µM] | -16% | / | / | -16% | 3%[46.1 µM] | -1% | -16%
28 | C/C(CC(=O)NCCN1CCOCC1)=N\NC(=O)c1ccncc1 | -7% | 12% | / | / | 6% | ? | 1% | 4%
8 | CCOC(=O)c1sc2nc(C)nc(N3CCN(c4ncccn4)CC3)c2c1C | / | -16% | / | / | ? | / | -2% | -3%
18 | CCOC(=O)N1CCN(S(=O)(=O)c2ccc(OCC)c3ccccc23)CC1 | ? | -10% | ? | -7.4% | ? | ? | -18% | -70%
6 | COc1ccccc1CCNC(=O)c1cccc(NC(=O)CC2SC(N3CCCCC3)=NC2=O)c1 (stereo unspecified) | -18% | -17% | / | / | -14% | -2% | / | /
26 | COc1ccc(-c2nc(Cn3c(SCc4ccc(C)cc4)nc4ccncc43)c(C)o2)cc1OC | / | 19% | 5% | -7.6% | -8% | / | 13% | 10%
4 | CN(C(=O)COC(=O)c1cc(S(=O)(=O)N2CCCCC2)ccc1N1CCOCC1)C1CCS(=O)(=O)C1 (stereo unspecified) | / | 8% | / | / | 2% | / | -7% | -2%

(list continues)
# | structure | Lassa entry inh | RE007 growth inh | Cruzain inh noDet | Cruzain inh Det | StopGo reporter | MARV entry inh | SARS PLP yeast | NS1 inh
31 | O=C1CN(C(=O)c2ccccc2)C(c2ccc(F)cc2)c2cc(Br)ccc2N1 (stereo unspecified) | ? | 44% | 5% | -1.1% | -6%&-15% | ? | -3% | -1%
32 | CCC(/C=C1\Oc2ccc(OC)cc2N1C)=C\c1sc2ccccc2[n+]1CCCS(=O)(=O)[O-] | 5%[46.1 µM] | -3% | / | / | 1% | 1%[46.1 µM] | / | /
33 | O=C(NC1CCCCC1)N1CCc2ccccc21 | 17% | -8% | 2% | 0.7% | 65%[activator] | 29% | -2% | 1%
34 | CCc1nnc(NS(=O)(=O)c2ccc(NCc3ccccc3O)cc2)s1 | 5% | 0% | / | / | 4% | 15% | -2% | -5%
35 | CCOC(=O)c1c(NC(=O)CSc2nnnn2-c2ccccc2OCC)sc2c1CC(C)(C)NC2(C)C | ? | 14% | / | / | -20% | ? | -7% | /
36 | Cc1ccnc2nc(C(=O)Nc3cc(Cl)ccc3N3CCOCC3)nn12 | 9% | 28% | ? | 2.0% | -15% | 0% | -16% | 4%
37 | COc1ccc(C2NC(=S)NC(C)=C2C(=O)Nc2ccccn2)cc1 (stereo unspecified) | / | 2% | / | / | 60%[activator] | / | 0% | 4%
38 | O=C(CCCOc1ccc(Cl)cc1Cl)N1CCc2ccccc2C1 | 3% | 15% | ? | -8.4% | -12% | -8% | -17% | 11%
39 | Fc1ccccc1N1CCN(c2ncnc3onc(-c4cccc(Cl)c4)c23)CC1 | ? | / | -9% | -3.4% | ? | ? | / | /
40 | O=C(O)CN1C(=O)C2C3CC(C2C1=O)C1C(c2ccccc2)c2sc(=O)[nH]c2SC31 (stereo unspecified) | -1% | -11% | 10% | 1.4% | -4% | 9% | 1% | 18%
41 | Clc1ccccc1OCc1nnc(-c2ccccc2Br)o1 | ? | ? | 5% | -11% | 66%[activator] | 6% | -15% | -33%
42 | Cc1ccc(Nc2nc3ccccc3c3nnc(C)n23)cc1Cl | 22%[46.1 µM] | / | -12% | -2.8% | -6% | / | / | /
43 | CCOc1ccc(C(=O)N(CN2CCCC2=O)c2ccccc2)cc1 | -16% | -12% | -2% | 2.9% | -15% | 12% | 7% | 4%
44 | O=C(Cn1cnc2ccccc21)N1CCN(S(=O)(=O)c2ccccc2)CC1 | 6% | -8% | / | / | 0% | -1%[46.1 µM] | 4% | 2%
45 | O=C1CCCCCN1CP(=O)(O)CN1CCOCC1 | / | / | -12% | -1.7% | / | -1% | 5% | 3%
46 | COc1ccc(-c2nc(CN3CCC(C(=O)NCc4ccc(C)cc4)CC3)c(C)o2)cc1OC | -31%[46.1 µM] | / | ? | -1.9% | ? | -17%[46.1 µM] | / | /
47 | CCCN(Cc1cc2cc(C)ccc2[nH]c1=O)S(C)(=O)=O | -6% | 6% | 17% | 0.2% | -6% | 14% | 3% | -6%
48 | Cc1nn(-c2ccc(N3CCCCC3)nn2)c(C)c1CCC(=O)NCc1ccc(F)cc1 | -19%[46.1 µM] | / | 3% | -2.1% | -13% | / | / | /
49 | Oc1c(-c2cc(-c3ccco3)[nH]n2)ccc2ccccc12 | -28% | 4% | ? | -0.9% | 52%[activator] | ? | -5% | -51%
50 | CCCCc1nc(C(N)=O)c2[nH]c(=O)n(-c3ccc(OC)cc3OC)c2n1 | / | -6% | / | / | -11% | / | 3% | 26%
